TRPML1 ag – activates the human TRPML1 channel; Q9GZU1; TRPML1-expressing cells, Ca2+ dye fluorescence, FDSS; host cell line not named in the record; reference of the full effect not given here; activation, % (test concentration not listed); 410,000 tested, 0.12% active; AID 624414; in the data active = activation above about 50%; inconclusive = about 30% to 50%; inactive = below about 30%; also: 0% is about no effect; the text of the record puts the active cut at 80%
Target sequence (Q9GZU1 whole entry, looked up): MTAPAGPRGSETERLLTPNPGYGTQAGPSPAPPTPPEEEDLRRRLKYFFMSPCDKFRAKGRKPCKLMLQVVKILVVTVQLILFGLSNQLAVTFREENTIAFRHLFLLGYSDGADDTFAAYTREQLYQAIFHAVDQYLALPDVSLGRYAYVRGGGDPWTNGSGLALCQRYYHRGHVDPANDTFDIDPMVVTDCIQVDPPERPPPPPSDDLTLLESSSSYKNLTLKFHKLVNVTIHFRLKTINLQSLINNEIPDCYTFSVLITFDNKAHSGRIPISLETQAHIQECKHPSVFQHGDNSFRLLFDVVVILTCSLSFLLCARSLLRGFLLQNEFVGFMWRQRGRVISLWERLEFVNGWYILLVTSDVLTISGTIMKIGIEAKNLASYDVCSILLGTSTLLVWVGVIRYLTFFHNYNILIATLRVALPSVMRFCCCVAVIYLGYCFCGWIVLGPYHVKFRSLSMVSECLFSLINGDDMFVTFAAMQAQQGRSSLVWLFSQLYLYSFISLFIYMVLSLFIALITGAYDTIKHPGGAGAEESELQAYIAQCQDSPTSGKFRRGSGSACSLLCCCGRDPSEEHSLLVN
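In this qHTS format, compounds were pin-transferred onto Ca8-dye-loaded TRPML1-DL cells induced with Tet overnight, and intracellular Ca2+ fluorescence was recorded kinetically for 110 s after a 10 s baseline. A subsequent 4uM final 54-4 (EC80) addition followed by a second 110 s read served as the antagonist phase.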
TRPML1 inh – inhibitors of human TRPML1 channel. 390,000 tested, 0.02% active. Q9GZU1. TRPML1-inducible cells, Ca2+ dye fluorescence, FDSS; hits give low values; inhibition of EC80 agonist-evoked calcium signal. AID 624415. activity change, negative = inhibition, % (no concentration beside the values); in the data active means activity change below about -50%; inconclusive means about -30% to -50%; inactive means above about -30%;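 also: stimulus is agonist 54-4 at its EC80 concentration; % is scaled to controls: 0 for no effect and ±100 for the full control effect; compound concentration not given in the record; the text of the record puts the active cut at -80%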
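Tet-induced TRPML1-DL cells loaded with Ca8 no-wash calcium dye were read kinetically on FDSS. Compound addition was followed by EC80 agonist 54-4 (4 uM final); inhibition was read over 110 s.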
Six1-Eya2 inh – blocks human Six1 binding to Eya2 | 360,000 tested, 0.56% active | activity change, % (concentration not given with the values) | AID 651725 | Q15475+O00167 | AlphaScreen GST-Six1/His-Eya2 binding, biochemical; hits give low values; control for the full effect not named in the record; in the data active = activity change below about -65%; inconclusive = about -30% to -65%; inactive = above about -30%; also: % is scaled to controls: 0 for no effect and ±100 for the full control effect
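AlphaScreen with GST-Six1 and His-Eya2 (5X mix: 250 nM and 500 nM), glutathione donor and nickel acceptor beads; buffer 50 mM Tris pH 8.0, 300 mM NaCl, 1 mM TCEP; 1 h at 37 C in the dark.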
D2 ag – agonists of human D2 dopamine receptor (beta-arrestin); P14416; DiscoveRx PathHunter D2 beta-arrestin, luminescence, 90 min; 100% = 57 uM dopamine signal; activation, % (test concentration not listed); 360,000 tested, 0.084% active; AID 624465; in the data active = activation above about 40%; inconclusive = about 15% to 40%; inactive = below about 15%; also: compound concentration not given in the record; the text of the record calls up to 30% inactive
Target sequence (P14416 whole entry, looked up): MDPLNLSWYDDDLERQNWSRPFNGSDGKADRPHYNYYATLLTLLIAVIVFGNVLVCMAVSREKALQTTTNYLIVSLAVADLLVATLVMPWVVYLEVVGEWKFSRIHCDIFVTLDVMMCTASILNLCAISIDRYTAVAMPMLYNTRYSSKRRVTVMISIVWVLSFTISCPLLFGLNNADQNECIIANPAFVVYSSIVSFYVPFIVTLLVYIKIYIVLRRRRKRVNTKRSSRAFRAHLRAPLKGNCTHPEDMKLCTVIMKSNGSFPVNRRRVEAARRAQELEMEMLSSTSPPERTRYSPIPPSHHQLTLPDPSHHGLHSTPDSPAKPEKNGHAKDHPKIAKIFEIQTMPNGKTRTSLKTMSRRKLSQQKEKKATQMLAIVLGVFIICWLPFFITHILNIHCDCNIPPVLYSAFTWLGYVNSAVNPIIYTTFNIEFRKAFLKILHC
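Agonist mode: compounds alone added to overnight-plated D2 PathHunter cells for 90 min at 37 C, with 57 uM final dopamine (EC100) defining full response. Beta-arrestin recruitment detected by chemiluminescent reagent, read after 1 h at ambient temperature.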
D2 PAM – positive allosteric modulators of human D2 dopamine receptor. 360,000 tested, 0.23% active. potentiation, % (concentration not given with the values). P14416. DiscoveRx D2 beta-arrestin cells, luminescence, 90 min; 100% = 57 uM dopamine signal; active = potentiation of 50% or more; inconclusive = 30% to 50%; inactive = 30% or less;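 also: compound concentration not given in the record; tested on top of an EC20 dose of dopamine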
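PathHunter beta-arrestin assay in DiscoveRx D2 cells. Compounds were added with an EC20 of dopamine (50 nM final) for 90 min at 37 deg C. Luminescence was read 1 h after detection reagent, with 57 uM dopamine as the EC100 control.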
PINK1 expr mod – modulators of PINK1 expression | PINK1 immunofluorescence, high-content cytometry, 24 h | AID 624263 | Potency, µM (titrated, usually from 76.6 µM), for the others: top-dose activation (PINK1 increase), usual class: activators | 410,000 tested, 0.2% active; active = well fitted activation curve with a large enough effect; inconclusive = small, poorly fitted or top-dose-only effect; inactive = flat fitted curve, though single readings scatter; cell line not stated here;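 also: potency is read from the fitted curve at half-maximal effect; % of control where 0% means no effect; nearly all actives have a fitted effect of over 65% in size; a mitochondrial uncoupler was the plate control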
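Decision-based qHTS: stable cells, 24 h exposure to five compound concentrations, CCCP as control. Fixed cells stained for PINK1 plus nuclear, mitochondrial and cell markers, cytometer read.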
Active calls of the source: *; ? = inconclusive; nt = no result given; & = joins results of further samples; [ ] = remark or other dose.

SMILES | TRPML1 ag | TRPML1 inh | Six1-Eya2 inh | D2 ag | D2 PAM | PINK1 expr mod
CC(=O)c1cn(CCOc2ccc(F)cc2)c2ccccc12 | 0.2 | 1 | 2 | 7.1 | -1 | 1.5%
O=C(Nc1nnc(CC(c2ccccc2)c2ccccc2)s1)c1ccco1 | 0.6 | 8 | 1 | 6.1 | -1 | 0.7%
NC(=S)NN=C1c2ccccc2-c2cc(Br)ccc21 | 0.5 | -28 | 0 | 2.2 | -30 | -2.7%
O=C(CSCC(=O)N1CCOCC1)Nc1ccccc1 | 0.6 | 33 | -1 | -3.6 | -1 | -0.6%
COc1ccccc1NC(=O)c1oc2ccccc2c1C | 1.3 | -1 | 17 | -3.3 | -23 | 2.0%
O=C(c1ccccc1)C1OC1C(=O)c1ccccc1 (stereo unspecified) | -0.6 | 2 | -13 | -6.7 | 3 | 5.9%
O=C(O)Cc1ccc(C(=O)c2ccc(Cl)cc2Cl)s1 | -0.5 | 2 | 16 | -2.5 | -1 | 2.7%
Cc1nc(SCC(=O)NCC2CCCO2)nc(C)c1C (stereo unspecified) | 0.1 | 1 | 7 | -3.2 | -2 | 0.2%
CCOc1ccccc1/C=N/n1nnnc1N | 1.1 | 5 | 1 | -1.3 | -4 | -1.1%
O=S(=O)(c1cccs1)N1CCN(Cc2cccc(F)c2)CC1 | -0.3 | 4 | -4 | 1.0 | 4 | 0.0%
Cc1ccc(CNC(=O)CCS(=O)(=O)c2cc3c(cc2C)NC(=O)CO3)cc1 | 0.5&4.5 | 1&-6 | 2 | -1.5 | -3 | 1.9%&3.8%
CCC(=O)Nc1ccc(NC(=O)CSc2nc3c(c(=O)n(C)c(=O)n3C)n2CC)cc1 | -0.5 | 9 | 6 | -2.2 | -9 | 3.6%
COc1ccc(C(=O)Nc2nc3n(n2)C(c2ccc(Cl)cc2)C=C(c2ccccc2)N3)cc1OC (stereo unspecified) | 14 | -1 | nt | nt | nt | 0.3%
CC(=O)c1cccc(NC(=O)c2c(N3CCCC3=O)c3cc(F)ccc3n2C)c1 | 1.1 | -6 | nt | nt | nt | 1.5%
COc1ccc(N2CCN(C(=O)COC(=O)CSc3ccccc3)CC2)cc1 | 0.6 | -3 | -13 | -4.3 | -21 | 2.3%
CC(C)(C)NNC(=S)Nc1cccc(F)c1 | -0.1 | 14 | 6 | -4.9 | -6 | -1.5%
O=C(COC(=O)C1CC(=O)N(Cc2ccco2)C1)Nc1ccccc1[N+](=O)[O-] (stereo unspecified) | 0.9 | 7 | 5 | -2.6 | -3 | -0.4%
CCc1ccc(NC(=S)N2CCC(NC(=O)c3ccccc3)CC2)cc1 | 0.1 | -13 | 7 | 3.2 | -6 | 6.1%
Cc1ccc(-c2nc(-c3ccncc3)no2)c(C)c1 | 0.0 | 9 | 3 | 0.1 | -4 | 2.7%
COc1cc(S(=O)(=O)N2CCN=C2c2ccccc2)ccc1F | -0.7 | 1 | 1 | -2.2 | -11 | 1.3%[38.3 µM]
N#Cc1c(NC(=O)CSCC(=O)O)sc2c1CCCC2 | 0.7 | -6 | 1 | -3.0 | -10 | 7.0%[38.3 µM]
Cc1c(NC(=O)CSc2nc3ccccc3n2C)c(=O)n(-c2ccccc2)n1C | 0.6 | -8 | 5 | -1.1 | -9 | -2.6%
Cc1cccc(NC(=O)CCn2nc(C)c3c(C)n(-c4ccccc4)nc3c2=O)c1C | -0.7 | 5 | nt | nt | nt | -1.4%
Cc1ccc(Cn2cc(CN3CC(N4CCN(CCN(C)C)CC4)CS3(=O)=O)nn2)cc1 (stereo unspecified) | -0.9 | nt | -2 | nt | nt | 0.5%
CCOC(=O)C1=C(C)N(CCCC(=O)O)C(=O)NC1c1ccccc1OS(=O)(=O)c1ccc(C)cc1 (stereo unspecified) | -0.7 | -5 | 1 | -2.6 | -9 | -1.0%

Retrieved one by one from the list above:
SMILES | TRPML1 ag | TRPML1 inh | Six1-Eya2 inh | D2 ag | D2 PAM | PINK1 expr mod
NC(=S)NN=C1c2ccccc2-c2cc(Br)ccc21 | 0.5 | -28 | 0 | 2.2 | -30 | -2.7%
CC(=O)c1cccc(NC(=O)c2c(N3CCCC3=O)c3cc(F)ccc3n2C)c1 | 1.1 | -6 | nt | nt | nt | 1.5%

Part of the list above, limited to TRPML1 inh:
| structure | TRPML1 inh |
| --- | --- |
| COc1cc(S(=O)(=O)N2CCN=C2c2ccccc2)ccc1F | 1 |
| CC(=O)c1cn(CCOc2ccc(F)cc2)c2ccccc12 | 1 |
| CCOc1ccccc1/C=N/n1nnnc1N | 5 |

(next part)
SMILES | TRPML1 ag | TRPML1 inh | Six1-Eya2 inh | D2 ag | D2 PAM | PINK1 expr mod
O=[N+]([O-])c1ccc(N2CCN(C(=S)NCc3ccc(Cl)cc3)CC2)cc1 | 0.2 | 7 | -15 | -1.7 | 5 | 4.2%
O=C(Nc1ccccc1)Nc1nnc([C@@H]2C[C@H](O)[C@@H](CO)O2)s1 | 0.1 | nt | -7 | -3.3 | -5 | -0.3%
CC(C)C(=O)NNC(=O)c1c(O)c2ccccc2[nH]c1=O | -0.7 | 2 | 3 | -3.5 | -4 | 7.1%
COC(=O)C1CCN(C(=O)CSc2ccccc2)CC1 | 0.7 | -17 | 2 | -0.5 | -16 | 2.6%
O=C(NCc1ccco1)c1cccnc1-c1nc2ccccc2s1 | -0.7 | 4 | -7 | -3.9 | -3 | -0.7%
O=C(NCCCN1CCCCCC1)c1ccc(N2CCCC2=O)cc1 | 0.4 | -17 | 1 | -0.6 | -12 | 3.8%
Cc1cc(NS(=O)(=O)c2ccc(NC(=O)c3ccccc3C)cc2)nc(C)n1 | -0.1 | -6 | nt | nt | nt | 3.8%
Cc1ccc(Cn2c(CNS(=O)(=O)c3c(C)cc(C)cc3C)nc3cccnc32)cc1 | 0.8 | 0 | nt | nt | nt | -0.7%
COc1ccc(C(=O)N2CCC(C(=O)N3CCN(c4ccccc4)CC3)CC2)cc1 | -0.6 | 9 | -1 | 1.2 | -17 | -0.2%
CC(C)Oc1ccc(C(=O)N(Cc2ccc(N(C)C)cc2)C2CCS(=O)(=O)C2)cc1 (stereo unspecified) | 0.1 | 11 | nt | nt | nt | -1.2%
O=c1c(-c2nc3ccccc3s2)cccn1Cc1ccc(Cl)cc1 | 1.0 | 2 | 36 | -0.7 | -3 | 6.9%[38.3 µM]
CCn1c(SCC(=O)c2ccccc2)nc2ccccc2c1=O | 1.8 | -14 | 1 | 5.8 | -11 | 2.9%
CC(=O)Nc1c(C)nn(-c2ccccc2)c1N1CCC(C(=O)Nc2ccc(Cl)cc2C)CC1 | 0.3 | -5 | nt | nt | nt | 0.5%
CC(C)c1ccc(NC(=O)NC2(C(=O)NCc3cccnc3)CCCCC2)cc1 | -1.1 | -3 | -6 | -1.8 | -9 | 1.0%
Nc1ccc2c(c1)C(=O)c1cc(N)c(Cl)cc1-2 | 2.9 | 11 | ? | -6.8 | -9 | 5.4%
O=C(CCNC(=O)c1ccc([N+](=O)[O-])cc1)NCCc1ccccc1 | -0.6 | -10 | -2 | 3.7 | 0 | 1.1%
CCC1(C)N=c2c(c(=O)n(C)c(=O)n2C)=NO1 (stereo unspecified) | 1.5 | -2 | 1 | -2.9 | -5 | 5.0%
CCOC(=O)c1ccccc1NC(=O)Nc1cc2c(cc1N1CCCC1)n(C)c(=O)n2C | -1.0 | 13 | nt | nt | nt | 0.0%
CCC(=O)Nc1nc2nc(-c3ccccc3)cc(-c3ccccc3)n2n1 | 0.1 | -15 | -6 | 1.3 | -3 | 11%
COc1ccccc1-c1cccc2nccn12 | -0.3 | nt | -7 | -4.5 | -15 | 1.3%
CCCN(CCC)CCCn1c(=O)[nH]c2ccccc21 | 1.6 | 6 | 4 | 7.6 | -10 | 3.2%
CN(C)C(=O)c1ccc(NC(=O)c2sccc2-c2ccccc2)cc1 | 0.0 | -2 | 0 | -6.2 | -13 | -0.3%
O=S(=O)(Nc1cccc(C(F)(F)F)c1)c1ccc(NS(=O)(=O)c2ccc3c(c2)OCCO3)cc1 | 5.5 | 3 | nt | nt | nt | -0.7%
CC(C)c1ccc(NC(=O)c2ccc(Cn3nc(N4CCN(c5ccccc5)CC4)ccc3=O)o2)cc1 | 2.0 | -19 | nt | nt | nt | 2.6%
O=C(Nc1ccccc1)Nc1ccc(C(=O)N2CCOCC2)cc1 | 0.3 | 29 | 6 | -2.5 | -7 | -0.6%
The listing continues:
SMILES | TRPML1 ag | TRPML1 inh | Six1-Eya2 inh | D2 ag | D2 PAM | PINK1 expr mod
O=C(NCCCN1CCOCC1)C1(c2ccccc2)CCCC1 | 0.1 | 4 | -2 | -3.3 | -5 | 1.8%
O=S(=O)(Nc1ccncc1Cl)c1ccc2ccccc2c1 | -1.1 | -8 | -8 | -0.7 | -32 | 0.1%
COc1ccc(C)cc1NC(=O)c1ccc(CN2CCN(c3ccccc3)CC2)cc1 | -0.1 | 8 | -28 | ? | 21 | 2.2%
COc1ccc(S(=O)(=O)N2CCOCC2)cc1NC(=O)CSc1nnc(NC2CC2)s1 | -0.5 | 23 | 4 | 1.3 | -6 | 0.6%
CC(C)CN(C(=O)COC(=O)CNC(=O)c1ccccc1F)C1CCS(=O)(=O)C1 (stereo unspecified) | 0.4 | 3 | 0 | -5.6 | -16 | 0.1%
Cn1c(C(=O)OCC(=O)NCC2CCCO2)cc2sccc21 (stereo unspecified) | -0.2 | -9 | 2 | -1.3 | 12 | nt
O=C(N=Nc1c(O)n(Cc2ccccc2)c2ccccc12)c1cc2ccccc2cc1O | 0.4 | -1 | 0 | -2.8 | -25 | 1.1%
COc1ccc(NS(=O)(=O)c2ccc3oc4ccccc4c3c2)cn1 | -0.3 | -18 | -7 | -1.2 | 10 | 4.1%[38.3 µM]
CCn1cc(C(=O)NCCC(C)C)c(=O)c2cc(F)c(N3CCN(C(=O)c4ccco4)CC3)cc21 | 0.6 | 22 | 1 | -2.4 | -5 | 2.4%
CCc1cccc(NC(=O)CC2Oc3ccccc3NC2=O)c1 (stereo unspecified) | 2.0 | 10 | 6 | -1.5 | -6 | 0.9%
CCN(CC)C(=O)c1sc2c(c1C)c(=O)n(-c1ccc(C)c(C)c1)c(=O)n2Cc1cc(=O)n2ccccc2n1 | 0.2 | -6 | nt | nt | nt | 3.3%
CCc1ccc2cccc3c2c1N=CN3C | 1.8 | 13 | -7 | 15 | 15 | 0.2%
Cc1cc(C)nc(Nc2ccc(F)cc2)n1 | 0.6 | 11 | 6 | 3.5 | 11 | 0.2%
Cc1ccsc1/C=N/NC(=O)Cn1cnc2ccccc21 | 0.1 | -20 | -4 | 0.6 | -22 | 8.7%
COc1cccc2c1cc1c(=O)n(CC(=O)NCCCN3CCCCC3)nc(C)n12 | 0.9 | 4 | 4 | -0.1 | -12 | 1.1%
COc1ccc(S(=O)(=O)N2CCN(Cc3cccc([N+](=O)[O-])c3)CC2)cc1 | 1.6 | 2 | -17 | 3.3 | 7 | -0.3%
COc1ccc(N2CC(NC(=O)COc3ccccc3C)CC2=O)cc1OC (stereo unspecified) | 0.1 | -24 | nt | nt | nt | 1.6%
COc1ccc(-c2cc(OC(=O)c3ccccc3C)c3c(C)oc(C)c3c(=O)c2)cc1 | -0.3 | 21 | nt | nt | nt | 5.6%
COc1ccc(CSc2nnc3[nH]c(=O)cc(N)n23)cc1 | 2.0 | 14 | -11 | 1.6 | -5 | 1.0%

Screens as filed in PubChem BioAssay.
